Mtb hypoxia inh = Mtb hypoxia fluorescent reporter inhibition | hit rate 0.1% among 300,000 | M. tuberculosis hypoxia-regulated fluorescent reporter, fluorescence | fluorescence inhibition, % (test concentration not listed);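 active means 35 to 45% if threefold the growth effect, above 45% if 1.5-fold the growth effect; inactive means the rest, general growth blockers included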;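 further: wells of about 50 µL received 100 nL stock; 0% = vehicle wells and 100% = reference inhibitor wells; whole bacteria with a GFP reporter of the hypoxia response; strong numbers were not always called active; many hits fall short of the cut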
Sa RN4220 lethal = S. aureus RN4220 growth inhibition. OD600, 16 h. inhibition, % (test concentration not listed). hit rate 0.33% among 330,000. AID 1259311;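 active means z-score of -3 or lower and OD600 up to 0.18 on both plates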;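 further: plate controls were untreated cells for no effect and reference antibiotic for full effect; stock transfer was 100 nL into about 80 µL; one replicate is shown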
PrP 5UTR inh = inhibition of PrP 5' UTR reporter expression | inhibition, % (concentration not given with the values) | hit rate 0.35% among 340,000 | cell-based PrP 5' UTR mRNA reporter, plate reader;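 active means every replicate at 50% or more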;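 further: 0 = median of the neutral control wells; tested in H4 reporter cells; numbers are from one replicate; inactives centre near -14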
Bead autofluor = flagged as autofluorescent in microsphere protease counterscreen. compound autofluorescence counterscreen, microsphere flow cytometry; active compounds read high. fluorescence intensity (concentration not given with the values). hit rate 3.1% among 360,000. AID 624483;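 active means at least 3 SD above the mean of all compounds, about 16000 in these data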;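 further: 100 nL of 1 mM stock went into each well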
ugtP null kill = compounds lethal to S. aureus RN4220 ugtP deletion mutant; OD600 growth, 16 h; some inactives read as strong as hits; growth inhibition, % (no concentration beside the values); hit rate 0.54% among 330,000; AID 1259309;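 active means z-score under -3 and OD600 up to 0.15 on both plates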;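 further: plate controls were untreated wells for no effect and antibiotic for full effect; wells of about 80 µL received 100 nL stock; the first replicate is given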
BJeLR lethal = kills HRASV12-expressing BJeLR cells | BJeLR (HRASV12) viability, CellTiter-Glo ATP luminescence, 48 h; reference of the scale not given here | inhibition, % (concentration not given with the values) | hit rate 0.17% among 300,000 | AID 1554;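 active means replicate mean above 50%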;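 further: 50 nL library stock added to about 25 µL; numbers are from one replicate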
Mtb hypoxia inh growth = recorded beside Mtb hypoxia inh, whose call it bears; growth inhibition, %; measured here: M. tuberculosis growth (absorbance);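 0% = vehicle and 100% = reference antibiotic; read after six days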
An asterisk follows results filed as active.

`COC(=O)COc1ccc(C=NNC(=O)c2ccc(N(Cc3ccccc3)S(C)(=O)=O)cc2)cc1` gave Mtb hypoxia inh 6, Sa RN4220 lethal 4.8, ugtP null kill 7 and Mtb hypoxia inh growth -5.
`COc1cccc(C(=O)Nc2cccc(C(C)=O)c2)c1` gave Mtb hypoxia inh 2, Sa RN4220 lethal 6.4, PrP 5UTR inh -36, Bead autofluor 9936, ugtP null kill 8, BJeLR lethal -6 and Mtb hypoxia inh growth 2.
CCOc1cc(Br)c(C(=O)O)cc1OCC was read as Mtb hypoxia inh 10, Sa RN4220 lethal 4.4, PrP 5UTR inh -6, Bead autofluor 7926, ugtP null kill 9, BJeLR lethal 3 and Mtb hypoxia inh growth 1.
`Cc1ccc(NC(=O)CSc2nccn2C)cc1S(=O)(=O)N1CCOCC1` gave Mtb hypoxia inh 9, Sa RN4220 lethal 2.8, PrP 5UTR inh -19, Bead autofluor 2527, ugtP null kill 3, BJeLR lethal 7 and Mtb hypoxia inh growth 11.
`COc1cccc(C(=O)Nc2cccc3ccccc23)c1OC` gave Mtb hypoxia inh 1, Sa RN4220 lethal 3.9, PrP 5UTR inh -20, Bead autofluor 4069, ugtP null kill 2, BJeLR lethal -2 and Mtb hypoxia inh growth 6.
For CC(C)Cn1c(=O)c2c(nc3n2CCS3)n(C)c1=O the results were Mtb hypoxia inh 13, Sa RN4220 lethal 4.2, PrP 5UTR inh -19, Bead autofluor 3669, ugtP null kill 4, BJeLR lethal -1 and Mtb hypoxia inh growth 1.
For CC(C)Cc1cc(C(=O)NCc2cccs2)no1 the results were Sa RN4220 lethal -7.8, PrP 5UTR inh -60, Bead autofluor 5847, ugtP null kill -3 and BJeLR lethal -8.
For Cc1ccc(C(=O)c2coc3cc([N+](=O)[O-])c(O)c([N+](=O)[O-])c23)cc1 the results were Mtb hypoxia inh 14, Sa RN4220 lethal 14, PrP 5UTR inh -12, Bead autofluor 1831, ugtP null kill 2, BJeLR lethal 5 and Mtb hypoxia inh growth 11.
COc1ccccc1C(=O)N(Cc1ccc(C)o1)C1CCS(=O)(=O)C1 (configuration not stated) was read as Mtb hypoxia inh 4, Sa RN4220 lethal 3.5, PrP 5UTR inh -21, Bead autofluor 5420, ugtP null kill 3, BJeLR lethal -8 and Mtb hypoxia inh growth 1.
For O=C(CNC(=O)C(c1ccccc1)c1ccccc1)NN=Cc1cccc(O)c1 the results were Mtb hypoxia inh -1, Sa RN4220 lethal 9.9, ugtP null kill 4 and Mtb hypoxia inh growth -8.
`Cc1ccc(-n2cc(CN3CCC(O)(c4ccccn4)CC3)c(-c3ccc(F)cc3)n2)cc1` gave Mtb hypoxia inh -1, Sa RN4220 lethal -5.1, PrP 5UTR inh -8, Bead autofluor 3512, ugtP null kill 11, BJeLR lethal 3 and Mtb hypoxia inh growth 6.
Screening Cc1cc(C(F)F)n2nc(C(=O)Nc3cccnc3Cl)nc2n1 returned Mtb hypoxia inh 12, Sa RN4220 lethal 3.7, PrP 5UTR inh -15, Bead autofluor 2842, ugtP null kill 6, BJeLR lethal 0 and Mtb hypoxia inh growth 9.
For COc1ccc(OC)c(NC(=O)Cc2c(C(=O)O)n(C)c3ccccc23)c1 the results were Mtb hypoxia inh 2, Sa RN4220 lethal 8.6, PrP 5UTR inh -48, Bead autofluor 3868, ugtP null kill 4, BJeLR lethal 1 and Mtb hypoxia inh growth 8.
CO/N=C/NC(=O)Cc1cn(-c2ncc(C(F)(F)F)cc2Cl)c2ccccc12 was read as PrP 5UTR inh -2, Bead autofluor 2079 and BJeLR lethal 3.
O=[N+]([O-])c1ccc(N2CCOCC2)cc1NC(c1ccccc1)c1ccccc1 was read as Mtb hypoxia inh 12, Sa RN4220 lethal -3.2, PrP 5UTR inh -2, Bead autofluor 1992, ugtP null kill -1, BJeLR lethal 5 and Mtb hypoxia inh growth 1.
COc1ccc(NC(=O)CCn2cccc2)cc1 was read as Mtb hypoxia inh 6, Sa RN4220 lethal -3.7, PrP 5UTR inh -26, Bead autofluor 2105, ugtP null kill 6, BJeLR lethal -5 and Mtb hypoxia inh growth -2.
Screening CCN(CC)c1ccc(/C=N/n2nnnc2N)c(O)c1 returned PrP 5UTR inh -42, Bead autofluor 22051* and BJeLR lethal 3.
For CCC(=O)N/C(N)=N/c1nc2ccccc2o1 the results were Mtb hypoxia inh 5, Sa RN4220 lethal 3.1, PrP 5UTR inh -138, Bead autofluor 4676, ugtP null kill 12, BJeLR lethal 15 and Mtb hypoxia inh growth 10.
For O=C(NNS(=O)(=O)c1ccccc1)c1ccc(S(=O)(=O)N2CCCCC2)cc1 the results were Mtb hypoxia inh -1, Sa RN4220 lethal 3.6, PrP 5UTR inh -11, Bead autofluor 1904, ugtP null kill -1, BJeLR lethal -7 and Mtb hypoxia inh growth -2.
Screening Cn1c(CCN2CCCCCC2)nc2cc(NC(=O)Nc3ccccc3)ccc21 returned Mtb hypoxia inh 14, Sa RN4220 lethal 5.4, PrP 5UTR inh -74, Bead autofluor 4736, ugtP null kill -1, BJeLR lethal 0 and Mtb hypoxia inh growth 11.
CCCc1cc(C(=O)N2CCCC(Cc3ccccc3C)(C(=O)OCC)C2)no1 (configuration not stated) was read as Mtb hypoxia inh 5, Sa RN4220 lethal 9.8, PrP 5UTR inh -35, Bead autofluor 5365, ugtP null kill -1, BJeLR lethal 5 and Mtb hypoxia inh growth -4.
For Cc1ccc(Nc2ccc(C(=O)NCCc3ccccc3)cn2)cc1 the results were Mtb hypoxia inh 1, Sa RN4220 lethal -7.9, PrP 5UTR inh -31, Bead autofluor 2240, ugtP null kill -8, BJeLR lethal -3 and Mtb hypoxia inh growth 8.
Cc1ccc(Cn2ncn(-c3ccccc3)c2=O)cc1 was read as Mtb hypoxia inh 10, Sa RN4220 lethal -1.0, PrP 5UTR inh -33, Bead autofluor 7249, ugtP null kill 10, BJeLR lethal 1 and Mtb hypoxia inh growth 6.
For Cc1ccc(NS(=O)(=O)c2cccc(C(=O)NCC(c3cccs3)N(C)C)c2)cc1 (configuration not stated) the results were Mtb hypoxia inh 12, Sa RN4220 lethal 4.2, PrP 5UTR inh -39, Bead autofluor 4015, ugtP null kill -67, BJeLR lethal 11 and Mtb hypoxia inh growth 2.
CN(C)CC#CCC(O)(c1ccccc1)C1CCCC1 (configuration not stated) was read as Mtb hypoxia inh 7, Sa RN4220 lethal 1.1, PrP 5UTR inh -8, Bead autofluor 23845*, ugtP null kill -2, BJeLR lethal 7 and Mtb hypoxia inh growth 4.
Screening COc1cccc(C2CC(=O)C3=C(C2)Nc2ccccc2N(C(=O)CCC(=O)O)C3c2ccc(F)cc2)c1 (configuration not stated) returned Mtb hypoxia inh -9, Sa RN4220 lethal -4.7, PrP 5UTR inh -2, Bead autofluor 4275, ugtP null kill -5, BJeLR lethal 0 and Mtb hypoxia inh growth -2.
`Cn1nc(NC(=O)C(C)(C)C)c2c(F)cccc21` gave Mtb hypoxia inh 8, Sa RN4220 lethal 3.4, PrP 5UTR inh 3, Bead autofluor 6114, ugtP null kill 8, BJeLR lethal 0 and Mtb hypoxia inh growth 15.
For COC(=O)C1Cc2ccccc2CN1S(=O)(=O)c1ccc(F)cc1 (configuration not stated) the results were Mtb hypoxia inh 16, Sa RN4220 lethal 3.4, PrP 5UTR inh -13, Bead autofluor 4406, ugtP null kill 11, BJeLR lethal -18 and Mtb hypoxia inh growth 10.
Cn1c(-c2sc(=S)n(-c3ccccc3)c2N)nc2ccccc21 was read as Sa RN4220 lethal 1.2, PrP 5UTR inh -34, Bead autofluor 5319, ugtP null kill 3 and BJeLR lethal -6.
O=C(/C=C/c1ccccc1)NC(=S)Nc1ncccn1 was read as Mtb hypoxia inh -6, Sa RN4220 lethal 1.2, PrP 5UTR inh -14, Bead autofluor 5346, ugtP null kill 12, BJeLR lethal -14 and Mtb hypoxia inh growth 3.
Screening CCC(C)C(NS(=O)(=O)c1ccc(C)cc1)C(=O)O (configuration not stated) returned Mtb hypoxia inh -6, Sa RN4220 lethal 6.4, PrP 5UTR inh -28, Bead autofluor 2696, ugtP null kill 15, BJeLR lethal -6 and Mtb hypoxia inh growth -2.
For CN(C(=O)CSc1nnc(-c2ccc3c(c2)OCO3)o1)C1CCS(=O)(=O)C1 (configuration not stated) the results were Mtb hypoxia inh 10, Sa RN4220 lethal 2.1, PrP 5UTR inh -14, ugtP null kill 2 and Mtb hypoxia inh growth -6.
Screening CC1Cc2cc(S(=O)(=O)N3CCN(c4cccc(Cl)c4)CC3)ccc2N1C(=O)C1CC1 (configuration not stated) returned Mtb hypoxia inh 2, Sa RN4220 lethal 0.8, PrP 5UTR inh -2, Bead autofluor 3951, ugtP null kill 9, BJeLR lethal -10 and Mtb hypoxia inh growth 2.
`COc1ccc(CCNC(=O)C2CCC(=O)N2S(=O)(=O)c2ccc(C)cc2)cc1` (configuration not stated) gave Mtb hypoxia inh -1, Sa RN4220 lethal 2.2, PrP 5UTR inh -18, Bead autofluor 3365, ugtP null kill 8, BJeLR lethal 0 and Mtb hypoxia inh growth 11.
For COc1ccccc1C(=O)Nc1c(C(=O)N2CCN(C)CC2)oc2ccccc12 the results were Mtb hypoxia inh -11, Sa RN4220 lethal -2.7, PrP 5UTR inh -21, Bead autofluor 4361, ugtP null kill -13, BJeLR lethal 3 and Mtb hypoxia inh growth 4.
`CCOc1ccc(NC(=O)CSc2nnc(-c3ccco3)n2N)cc1` gave Mtb hypoxia inh 2, Sa RN4220 lethal 3.2, PrP 5UTR inh -2, Bead autofluor 5544, ugtP null kill 4, BJeLR lethal 0 and Mtb hypoxia inh growth 1.
Screening CC(=O)C1(c2ccccc2)CCNCC1 returned Mtb hypoxia inh -2, Sa RN4220 lethal 2.5, PrP 5UTR inh -15, Bead autofluor 4701, ugtP null kill 0, BJeLR lethal 0 and Mtb hypoxia inh growth 3.
`Cc1cc(C)c2c(-n3cccc3)c(NC(=O)OC(C)C)sc2n1` gave Sa RN4220 lethal -1.4, PrP 5UTR inh -31, Bead autofluor 2865, ugtP null kill 16 and BJeLR lethal 6.
For O=[N+]([O-])c1cccnc1NCc1cccs1 the results were Mtb hypoxia inh 4, Sa RN4220 lethal 4.6, PrP 5UTR inh -23, Bead autofluor 1982, ugtP null kill 6, BJeLR lethal 1 and Mtb hypoxia inh growth 9.
`CC(C)(C)n1nc2c(c1NC(=O)c1ccc(Br)cc1)CS(=O)C2` (configuration not stated) gave Mtb hypoxia inh 4, Sa RN4220 lethal 5.6, PrP 5UTR inh 11, Bead autofluor 5905, ugtP null kill 10, BJeLR lethal -13 and Mtb hypoxia inh growth 1.
For COC(=O)c1sccc1NC(=O)c1cc(-c2cc(C)ccc2C)nc2ccccc12 the results were Mtb hypoxia inh 4, Sa RN4220 lethal -8.3, PrP 5UTR inh -41, Bead autofluor 21965*, ugtP null kill 2, BJeLR lethal -2 and Mtb hypoxia inh growth -2.
Screening CCCCNC(=O)C(CC)(ONc1ccccc1C(F)(F)F)c1ccccc1OC (configuration not stated) returned Mtb hypoxia inh -4, Sa RN4220 lethal -1.3, PrP 5UTR inh -39, Bead autofluor 3642, ugtP null kill -15 and Mtb hypoxia inh growth 7.
For COc1cc(/C=C2/C(=O)NN(c3ccc(Cl)cc3)C2=O)cc(OC)c1O the results were Mtb hypoxia inh 6, Sa RN4220 lethal 6.0, PrP 5UTR inh -6, Bead autofluor 3744, ugtP null kill 4, BJeLR lethal 4 and Mtb hypoxia inh growth 2.

Ordered by molar mass (ascending): some entries from above
Cn1c(-c2sc(=S)n(-c3ccccc3)c2N)nc2ccccc21 was read as Sa RN4220 lethal 1.2, PrP 5UTR inh -34, Bead autofluor 5319, ugtP null kill 3 and BJeLR lethal -6.
For CN(C(=O)CSc1nnc(-c2ccc3c(c2)OCO3)o1)C1CCS(=O)(=O)C1 (configuration not stated) the results were Mtb hypoxia inh 10, Sa RN4220 lethal 2.1, PrP 5UTR inh -14, ugtP null kill 2 and Mtb hypoxia inh growth -6.
For Cc1ccc(NS(=O)(=O)c2cccc(C(=O)NCC(c3cccs3)N(C)C)c2)cc1 (configuration not stated) the results were Mtb hypoxia inh 12, Sa RN4220 lethal 4.2, PrP 5UTR inh -39, Bead autofluor 4015, ugtP null kill -67, BJeLR lethal 11 and Mtb hypoxia inh growth 2.
Screening COc1cccc(C2CC(=O)C3=C(C2)Nc2ccccc2N(C(=O)CCC(=O)O)C3c2ccc(F)cc2)c1 (configuration not stated) returned Mtb hypoxia inh -9, Sa RN4220 lethal -4.7, PrP 5UTR inh -2, Bead autofluor 4275, ugtP null kill -5, BJeLR lethal 0 and Mtb hypoxia inh growth -2.

Screening data: PubChem, several laboratories
